# YopH inh: YopH tyrosine phosphatase inhibitors, primary screen, biochemical, fluorescence Ex485/Em525; YopH tyrosine phosphatase [Yersinia enterocolitica]; inhibition, %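 (about 10 µM by stock and volumes)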; actives 0.16% (n = 140,000);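 active = inhibition of 50% or more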;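 also: controls were vehicle for no effect and minimum signal wells for full effect; inactives centre near -20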
# Arbovirus inh: antivirals against arbovirus infection, primary screen, cell-based, full library, 10K replicate subset. AID 1251, 2008. actives 0.37% (n = 200,000). arbovirus infection cell-based antiviral screen. inhibition, % at 10 µM;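 active = inhibition from about 30%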;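 also: bluetongue infection of BSR cells; cell survival read as ATP light after 72 h; 0% = infected wells without compound and 100% = uninfected wells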
# Mtb growth: M. tuberculosis H37Rv growth inhibitors, H37Rv strain (AID 1626); M. tuberculosis H37Rv growth inhibition; higher % means a stronger effect; one-dose inhibition, % at 10 µM; IC50 in µM for titrated hits; actives 0.95% (n = 220,000);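 active = confirmed in a dose series; inconclusive = inhibition above 80% but not taken into the dose series; inactive = below 80% or under 30% at every dose of the series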;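 also: bacteria incubated seven days before Alamar blue readout; 0% = bacteria only wells and 100% = bacteria with antibiotic wells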
# RecA intein inh: Mtb RecA intein splicing inhibitors, primary screen, biochemical, fluorescence, HTS; cell-free RecA intein splicing; inhibition, %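 (about 9 µM by stock and volumes)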; actives 0.75% (n = 290,000); AID 2221, 2009; in the data active = inhibition above about 30%; inconclusive = no clear call, values can overlap the other calls;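 also: 0% = vehicle wells and 100% = reference inhibitor control wells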
# Target sequence (P9WHJ3 whole entry, looked up): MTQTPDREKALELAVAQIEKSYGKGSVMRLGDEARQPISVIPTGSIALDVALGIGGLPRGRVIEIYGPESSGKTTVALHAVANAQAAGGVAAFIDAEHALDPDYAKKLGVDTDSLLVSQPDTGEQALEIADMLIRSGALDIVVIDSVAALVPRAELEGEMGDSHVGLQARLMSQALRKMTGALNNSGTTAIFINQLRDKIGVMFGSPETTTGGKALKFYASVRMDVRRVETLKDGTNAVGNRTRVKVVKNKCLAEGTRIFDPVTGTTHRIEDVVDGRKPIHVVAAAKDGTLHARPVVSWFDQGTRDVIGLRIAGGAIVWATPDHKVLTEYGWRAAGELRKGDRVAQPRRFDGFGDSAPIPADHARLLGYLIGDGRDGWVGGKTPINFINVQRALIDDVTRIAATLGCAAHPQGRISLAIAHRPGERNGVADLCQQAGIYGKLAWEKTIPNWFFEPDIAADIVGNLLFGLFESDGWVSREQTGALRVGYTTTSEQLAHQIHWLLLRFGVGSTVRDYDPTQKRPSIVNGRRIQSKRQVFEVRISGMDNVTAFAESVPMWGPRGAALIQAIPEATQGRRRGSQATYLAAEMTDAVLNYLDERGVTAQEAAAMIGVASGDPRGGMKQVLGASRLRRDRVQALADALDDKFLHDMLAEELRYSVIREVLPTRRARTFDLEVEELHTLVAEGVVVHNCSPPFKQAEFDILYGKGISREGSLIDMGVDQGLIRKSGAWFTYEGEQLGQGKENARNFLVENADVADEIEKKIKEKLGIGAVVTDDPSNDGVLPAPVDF
# Mtb betalactam: beta-lactam sensitization of Mtb H37Rv, H37Rv. M. tuberculosis H37Rv growth with meropenem, percent inhibition; hits of this screen are not shown here. actives 0.27% (n = 330,000). inhibition, % at 25 µM. AID 434955, 2010;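 active = about 74% or more and at least 40 points above the plate without the antibiotic, then above 30% in a dose series; inconclusive = first-round hits that could not be retested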;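 also: growth measured after seven days incubation then overnight dye step; 0% = bacteria only wells and 100% = bacteria with antibiotic; twin plates without the antibiotic show which effects depend on it; some results filed as inactive read as strong as hits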
# Arbovirus inh repeat: also measured in Arbovirus inh; calls as there; inhibition, %; measured here: 10K subset replicate screen; many hits read low in the repeat;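 first of two repeat runs on a subset; 0% = infected and 100% = uninfected wells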
# The depositor's hits bear a star; ? = inconclusive; . = no result given. Not all compounds are listed; rates above refer to the full screens.
# Start of the data: the first 23 compounds (preview)
SMILES,YopH inh,Arbovirus inh,Mtb growth,RecA intein inh,Mtb betalactam,others
CC(C)c1ccc(NC(=O)NC2CC3CCC(C2)N3Cc2cccs2)cc1 (centres undefined),.,7,4%,2.7,9,
COc1ccc(-c2[nH]c(-c3ccc(C)cc3)nc2SCC(=O)NCc2ccco2)cc1OC,-15,-8,73%,-2.4,-2,
COc1ccc(C2=NOC(COc3ccc([N+](=O)[O-])cc3)C2)cc1 (centres undefined),.,.,5%,2.0,-2,
CC(Sc1nnc(-c2cccs2)n1N)C(=O)NCC1CCCO1 (centres undefined),.,.,.,-0.1,-15,
Cc1ccc(-c2noc(C3CCCCC3)n2)cc1,-38,7,-7%,-1.8,-23,
CCO/C(C)=C1\C(=O)N(CC)c2ccccc21,-20,-9,5%,15,5,Arbovirus inh repeat=-7
CC(=O)C1C(c2ccco2)c2c(noc2C)CC1(C)O (centres undefined),-16,2,-8%,2.1,1,
CC(NCC1(N2CCOCC2)CCCCC1)C(=O)N1CCc2ccccc21 (centres undefined),-26,16,1%,1.8,-2,
COc1ccc(-c2nnc3ccc(SCC(=O)N4CCCCCC4)nn23)cc1OC,.,-2,2%,1.4,-3,
Cc1c(Cl)cccc1NC(=O)COC(=O)CCc1nc2ccccc2n1-c1ccccc1,-41,0,4%,-2.2,0,
CC(=O)Nc1ccc(NC(=O)Cn2c(CC(=O)N3CCCC3)nc3ccccc32)cc1,-25,6,1%,0.4,-17,
CC(=O)Nc1nc2ccccc2n1Cc1ccc(Cl)cc1,.,.,?,-4.7,96,
CC(C)c1ccc(NC2(C#N)C(=O)Nc3ccccc32)cc1 (centres undefined),-145,-6,.,3.7,59,
CCOc1ccccc1CN1CCN(Cc2cc(=O)c3ccccc3[nH]2)CC1CCO (centres undefined),.,.,.,-0.5,-8,
CC(=O)NC(C)C(=O)OCC(=O)Nc1ccc(Br)cc1 (centres undefined),2,10,-6%,-0.1,13,Arbovirus inh repeat=7
O=C(c1ccccc1)c1cn(CC(=O)N2CCOCC2)c2ccccc12,-23,6,.,.,-3,
Cc1nn2cc(-c3cccc(Cl)c3)cnc2c1Cl,.,-14,3%,2.5,3,
COc1ccccc1NC(=O)c1ccccc1NS(=O)(=O)c1cccs1,.,9,-2%,8.3,-4,
CC(=O)NCCC(=O)NCc1ccc(F)cc1,3,2,1%,-0.3,-4,
Cc1ccc(N(C(=O)Nc2ccccc2)C2=NCC(C)S2)cc1 (centres undefined),-13,-1,1%,4.6,-20,
O=S(=O)(/N=C/c1c(O)ccc2ccccc12)c1ccccc1,.,.,.,-1.4,3,
Cc1cccc(NC(=O)CC2SC(=NC3CCCCC3)NC2=O)c1 (centres undefined),-24,1,0%,1.0,-5,Arbovirus inh repeat=7
CC(=O)N1C(c2ccccc2)CC(=O)OC1c1ccc2c(c1)OCO2 (centres undefined),-18,-2,-3%,3.0,-9,

# Main list, from the start:
SMILES,YopH inh,Arbovirus inh,Mtb growth,RecA intein inh,Mtb betalactam,others
CC(C)c1ccc(NC(=O)NC2CC3CCC(C2)N3Cc2cccs2)cc1 (centres undefined),.,7,4%,2.7,9,
COc1ccc(-c2[nH]c(-c3ccc(C)cc3)nc2SCC(=O)NCc2ccco2)cc1OC,-15,-8,73%,-2.4,-2,
COc1ccc(C2=NOC(COc3ccc([N+](=O)[O-])cc3)C2)cc1 (centres undefined),.,.,5%,2.0,-2,
CC(Sc1nnc(-c2cccs2)n1N)C(=O)NCC1CCCO1 (centres undefined),.,.,.,-0.1,-15,
Cc1ccc(-c2noc(C3CCCCC3)n2)cc1,-38,7,-7%,-1.8,-23,
CCO/C(C)=C1\C(=O)N(CC)c2ccccc21,-20,-9,5%,15,5,Arbovirus inh repeat=-7
CC(=O)C1C(c2ccco2)c2c(noc2C)CC1(C)O (centres undefined),-16,2,-8%,2.1,1,
CC(NCC1(N2CCOCC2)CCCCC1)C(=O)N1CCc2ccccc21 (centres undefined),-26,16,1%,1.8,-2,
COc1ccc(-c2nnc3ccc(SCC(=O)N4CCCCCC4)nn23)cc1OC,.,-2,2%,1.4,-3,
Cc1c(Cl)cccc1NC(=O)COC(=O)CCc1nc2ccccc2n1-c1ccccc1,-41,0,4%,-2.2,0,
CC(=O)Nc1ccc(NC(=O)Cn2c(CC(=O)N3CCCC3)nc3ccccc32)cc1,-25,6,1%,0.4,-17,
CC(=O)Nc1nc2ccccc2n1Cc1ccc(Cl)cc1,.,.,?,-4.7,96,
CC(C)c1ccc(NC2(C#N)C(=O)Nc3ccccc32)cc1 (centres undefined),-145,-6,.,3.7,59,
CCOc1ccccc1CN1CCN(Cc2cc(=O)c3ccccc3[nH]2)CC1CCO (centres undefined),.,.,.,-0.5,-8,
CC(=O)NC(C)C(=O)OCC(=O)Nc1ccc(Br)cc1 (centres undefined),2,10,-6%,-0.1,13,Arbovirus inh repeat=7
O=C(c1ccccc1)c1cn(CC(=O)N2CCOCC2)c2ccccc12,-23,6,.,.,-3,
Cc1nn2cc(-c3cccc(Cl)c3)cnc2c1Cl,.,-14,3%,2.5,3,
COc1ccccc1NC(=O)c1ccccc1NS(=O)(=O)c1cccs1,.,9,-2%,8.3,-4,
CC(=O)NCCC(=O)NCc1ccc(F)cc1,3,2,1%,-0.3,-4,
Cc1ccc(N(C(=O)Nc2ccccc2)C2=NCC(C)S2)cc1 (centres undefined),-13,-1,1%,4.6,-20,
O=S(=O)(/N=C/c1c(O)ccc2ccccc12)c1ccccc1,.,.,.,-1.4,3,
Cc1cccc(NC(=O)CC2SC(=NC3CCCCC3)NC2=O)c1 (centres undefined),-24,1,0%,1.0,-5,Arbovirus inh repeat=7
CC(=O)N1C(c2ccccc2)CC(=O)OC1c1ccc2c(c1)OCO2 (centres undefined),-18,-2,-3%,3.0,-9,
CCC(C)(C)NC(=O)CN(CC1CCCO1)C(=O)CCC(=O)Nc1nccs1 (centres undefined),-3,11,7%,-11,-12,
CCCCNC(=O)N1CCCC(N(C)CCc2ccc(OC)c(OC)c2)C1 (centres undefined),.,.,.,1.0,-14,
COc1ccc(N2CCN(CC(=O)c3ccccc3)CC2)cc1,.,.,.,-4.3,-8,
CC(CC(=O)NCc1ccc(Cl)cc1)S(=O)(=O)c1ccc2c(c1)NC(=O)CO2 (centres undefined),.,.,.,3.4,3,
CC(Cc1c[nH]c2ccccc12)C(=O)O (centres undefined),.,1,-3%,-1.8,2,Arbovirus inh repeat=1
Cc1cc(CNC(=O)c2ccc(C)c([N+](=O)[O-])c2)c2ccccc2n1,.,-1,1%,0.1,-10,
COCc1c(Br)c(C)nc(OCC(=O)N/N=C/c2cc(C)n(-c3ccc([N+](=O)[O-])cc3)c2C)c1C#N,-15,3,2%,-0.7,2,

# Overlap with the part before: 2 entries; new compounds follow.
SMILES,YopH inh,Arbovirus inh,Mtb growth,RecA intein inh,Mtb betalactam,others
Cc1cc(CNC(=O)c2ccc(C)c([N+](=O)[O-])c2)c2ccccc2n1,.,-1,1%,0.1,-10,
COCc1c(Br)c(C)nc(OCC(=O)N/N=C/c2cc(C)n(-c3ccc([N+](=O)[O-])cc3)c2C)c1C#N,-15,3,2%,-0.7,2,
COC(=O)c1ccccc1Oc1cnc2ccccc2n1,.,.,.,2.0,-2,
COc1cc(/C=N/NC(=O)c2ccc(Cn3cc([N+](=O)[O-])cn3)o2)cc(Br)c1O,.,1,4%,-0.7,7,
CCOC(=O)c1c(CN2CCC(C)CC2)n(C)c2cc(Br)c(OC)cc12,.,.,12%,7.3,-1,
CCCCCOC(=O)Cc1c(C)nc(-c2ccccc2)[nH]c1=O,-42,6,-4%,2.1,-5,
COc1cccc(C(=O)NCC(=O)OCc2ccc(F)cc2Cl)c1,-22,3,-2%,0.7,4,
COc1ccccc1C(=O)Nc1cccc2nc(C)ccc12,.,.,.,-1.2,-3,
Cc1ccc(NC(=O)CC2SC3=NCCN3C2=O)cc1 (centres undefined),13,9,-12%,.,-7,Arbovirus inh repeat=4
COC(=O)c1ccc(/C=N/N2C(C)CCCC2C)cc1 (centres undefined),.,0,-8%,-3.3,-1,
CC(C)(C)c1cc(Cc2ccccc2)[nH]n1,-15,-1,4%,0.0,.,
CCCC(=O)N1CCN(c2ccc(NC(=S)NC(=O)c3cccc(C)c3)cc2)CC1,.,12,25%,-1.0,74,
COCCN(C(=O)COC(=O)CC(C)c1ccccc1)c1c(N)n(Cc2ccccc2)c(=O)[nH]c1=O (centres undefined),.,.,.,-1.4,-5,
COc1ccc(N2CCN(Cc3cc(=O)oc4cc(-c5ccccc5)c(O)cc34)CC2)cc1,0,-16,8%,-2.7,-1,
COc1ccc(N2CCN(C(=O)c3ccc(S(=O)(=O)N4CCOCC4)cc3)CC2)cc1,-25,3,0%,-1.5,-5,
COc1ccc(NC(=O)c2cccc(N3C(=O)C4CC=C(C)CC4C3=O)c2)c(OC)c1 (centres undefined),.,.,.,-3.5,1,
Cc1cc2nnc(SCC(=O)N(C)C3CCS(=O)(=O)C3)n2c2ccccc12 (centres undefined),.,2,6%,.,-8,
O=C(Nn1cnc2ccccc2c1=O)c1ccc(F)cc1Cl,20,-30,-1%,0.7,5,
CCc1ccc(N2C(=O)Cc3c2nc(N)c(C#N)c3N)cc1,-16,2,6%,-4.7,-4,
CC(C)CCC1(CCNC(=O)c2cccs2)CCOC(C)(C)C1 (centres undefined),.,.,-2%,4.6,-8,
CCOC(=O)C(=O)Nc1nc(-c2ccccc2)c(-c2ccccc2)o1,-29,-5,-1%,5.3,-1,
COC(=O)C(CCSC)NC(=O)CNS(=O)(=O)c1ccc(Br)cc1 (centres undefined),-34,11,-7%,-0.4,-2,
COc1ccc(OC)c(S(=O)(=O)N2CCCC(C(=O)NCc3ccco3)C2)c1 (centres undefined),.,.,.,1.7,4,
CCOc1ccc2c(c1)cc(CN(C(=O)CC)C1CCCCC1)c1nnnn12,-45,-7,-13%,5.5,-7,
O=C(Nc1ccc2c(c1)OCO2)N1CCOCC1,-8,-1,-8%,-0.8,-28,
CCOC(=O)C1CCN(C(=O)C2CC(=O)N(c3ccc(C)cc3)C2)CC1 (centres undefined),-14,10,-9%,-0.1,14,
CN(c1ccccc1)S(=O)(=O)c1cccc(NC(=O)C2CC(=O)N(Cc3ccccc3)C2)c1 (centres undefined),.,.,-9%,1.0,-7,
CCOC(=O)C1CCN(C(=O)c2cc(OCC)c(OCC)c(OCC)c2)CC1,-17,-5,.,0.5,-12,
CCOC(=O)C1CCCN(C(=O)Nc2c(-c3ccccc3)noc2C)C1 (centres undefined),.,.,-6%,-3.9,-10,
CCOc1ccccc1N(CC(=O)NC1CCCC1)C(=O)CCCC(=O)Nc1ccccn1,-15,-2,4%,1.7,-13,
Cc1nc(Cl)sc1C(=O)Nc1ccc2ccccc2c1,0,-5,14%,3.0,3,
Cc1c2cnn(CC(=O)N3CCC4(CC3)OCCO4)c(=O)c2c(C)n1Cc1cccc(Cl)c1,.,.,.,1.7,-4,
Clc1cccc(N2CCNCC2)c1Cl,-7,-27,-4%,1.5,-3,
CC1(C)C[C@@H](O)CC2(C1)C[C@]1(C)CC(O)[C@H]2C(C)(C)C1 (some centres undefined),.,.,.,0.7,1,
Cn1nc(C(F)(F)F)c(C#N)c1N1CCN(c2ccc(F)cc2)CC1,6,-6,-7%,5.6,-2,
Cc1ccc(SCC(=O)OC(C)C(=O)NC2(C#N)CCCCC2)cc1 (centres undefined),.,.,.,0.3,3,
CCCCCN(C(=O)CCC(=O)OCc1cccc(F)c1)c1c(N)n(CCCC)c(=O)[nH]c1=O,.,.,.,2.9,-6,
CNc1ccc(OC)cc1-n1cnc(-c2ccc([N+](=O)[O-])cc2)c1,.,.,.,-6.2,6,
CCCCCCC#Cc1ccc2c(c1)COc1c3ccccc3nn1-2,.,.,20%,3.3,97,
COc1ccc(N2CC(C)Cn3c2nc2c3c(=O)n(Cc3ccccc3)c(=O)n2C)c(OC)c1 (centres undefined),.,7,8%,1.3,4,
